Compound activity as filed in PubChem.
Calb biofilm kill – mixture kills Candida albicans biofilm cells | C. albicans biofilm persisters + clotrimazole, fluorescence viability; primary screen in compound mixtures of four per well | inhibition, % at 7.6 µM | AID 1242 | 0.02% of 120,000 active;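 active means inhibition above 30.3% in the primary screen of four-compound pools, then above 30% when the compound was retested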;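 further: compounds exposed to preformed 24 h biofilms for 48 h; the number belongs to the whole pool; some results filed as inactive read as strong as hits; inactives centre near 12; 0% = biofilm with clotrimazole alone and 100% = kill control; retested singly at about 60 µM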
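Assay system: C. albicans biofilms / Medium: RPMI/MOPS medium, pH 7.0 / Schedule: biofilm formation 24 h, compound exposure 48 h, 37 °C / Measured by: Alamar Blue fluorescence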
* marks the source's active call; other numbers are inactive results.

SMILES	Calb biofilm kill
O=C1c2cccc3cccc(c23)C(=O)N1/N=C/c1c(O)n(-c2ccccc2)c(=O)[nH]c1=O	15.4
O=c1[nH]c(=O)n(C2CCCCC2)c(O)c1/C=N/N1CCCCC1c1cccnc1 (stereo not drawn)	17.4
CCC12CN3CCN(CC(C3)/C1=N/NC(=O)c1ccncc1)C2	6.2
CCc1nc2ccccc2c(=O)n1-c1ccccc1[N+](=O)[O-]	15.8
O=C(O)C1C2CCC(O2)C1C(=O)NC1CCCCC1 (stereo not drawn)	12.4
CNC(=O)c1cccn(Cc2ccc(C(F)(F)F)cc2)c1=O	20.3
COC(=O)C(O)(c1ccc(N(C)C(=O)COc2ccccc2)cc1)C(F)(F)F (stereo not drawn)	11.7
CCC(C#N)(CC)P(=S)(c1ccccc1)c1ccccc1	10.2
O=C(NCc1cccnc1)C(Cl)(Cl)Cl	14.6
O=C1/C(=C\c2ccc(Cl)cc2Cl)N2CCC1CC2	20.4
N#CC1(c2ccccc2)CCN(C2CC(=O)N(c3ccc4c(c3)OCO4)C2=O)CC1 (stereo not drawn)	6.8
COc1ccc(CCn2c(O)c(C=Nc3ccccc3F)c(=O)[nH]c2=O)cc1OC	8.9
CC(=O)N1CN2CN(C(C)=O)CC(C(=O)c3ccc([N+](=O)[O-])cc3)(C2)C1	7.5
CN(C)c1ccc(/C=C2\C(=O)NC(=O)N(CCc3ccc(F)cc3)C2=O)cc1	23.4
O=C(Nc1ccc2ccccc2c1)N1C[C@H]2C[C@@H](C1)c1cccc(=O)n1C2	6.8
OCC[N+]12CCC(CC1)C(C(O)(c1ccccc1)c1ccccc1)C2 (stereo not drawn)	19.8
CCOc1ccc(-n2c(O)c(N=Nc3c(C)n(C)n(-c4ccccc4)c3=O)c(=O)[nH]c2=O)cc1	18.8
CCOC(=O)c1nc2ccccc2c(=O)n1-c1ccc(C)cc1C	17.6
CC(C)=CCOc1c2occc2cc2ccc(=O)oc12	22.1
CCOC(=O)C1(CCOc2ccccc2)CCN(C2Cc3ccccc3C2)CC1	2.5
O=P(Oc1ccccc1)(Oc1ccccc1)c1ccccc1	0.3
COc1ccc(C=C2C(=O)N(C)C(=O)N(C)C2=O)cc1COc1ccc(NC(C)=O)cc1	15.7
O=C(O)c1cccc(N=Nc2c(O)[nH]c(=O)[nH]c2=O)c1	0.4
COc1ccc(Cn2c(O)c(/C=N/NC(=O)c3ccccc3)c(=O)[nH]c2=O)cc1	1.0
CC(C)(C)[C@]1(O)C[C@@H]2OC(=O)C[C@@]23C(=O)O[C@@H]2OC(=O)[C@H](O)[C@]213	17.0
O=c1[nH]c(=O)n(Cc2ccccc2)c(O)c1C=NCCN1CCOCC1	-4.1
O=[N+]([O-])c1ccc(N2CCNCC2)c(Cl)c1	13.7
CN1CCN(S(=O)(=O)c2cnc(Cl)c(Br)c2)CC1	17.1
Cc1ccc(S(=O)(=O)N2CCCCC2)cc1NC(=O)CN1CC=C(c2ccccc2)CC1	9.9
O=c1c2ccccc2nc(Cc2cccc([N+](=O)[O-])c2)n1-c1ccc(O)cc1	17.0
O=c1c2ccccc2nc(/C=C/c2ccco2)n1-c1ccccc1O	30.9
CC1CCN(CC(=O)c2ccc3c(c2)OCCO3)CC1	3.3
CCCCNC(=S)N1CCn2cccc2C1c1cccnc1 (stereo not drawn)	18.8
CC(C(O)c1ccccc1)N(C)CCn1cnc2c1c(=O)n(C)c(=O)n2C (stereo not drawn)	-2.6
Cc1ccc(OP(=O)(NCc2ccccc2)Oc2ccc(C)cc2)cc1	19.3
O=c1[nH]c(=O)n(Cc2ccccc2Cl)c(O)c1/C=C1/C=CC=N1	2.0
CC(C)(C)n1cc(C(=O)c2ccccc2)cc1-c1ccccc1	13.4
CCC(CO)(C(=O)OC1C[N+]2(C)CCC1CC2)c1ccccc1 (stereo not drawn)	11.6
CCC(CC)C1C(C#N)=C(N)Oc2c1c(=O)oc1ccccc21 (stereo not drawn)	15.5
CCCCn1c(O)c(C(CC)=NCCCn2ccnc2)c(=O)[nH]c1=O	17.2
Cc1cc(Br)c(NC(=O)CN2CC=C(c3ccccc3)CC2)c(Br)c1	6.6
CCCNc1nc(OC)nc(N2CC3CC(C2)c2cccc(=O)n2C3)n1 (stereo not drawn)	2.6
CC(C)NCC(O)c1ccc(C2CCCC2)cc1 (stereo not drawn)	9.6
CCCCn1c(NS(=O)(=O)c2ccc(C)cc2)c(C(=O)OCC)c2nc3ccccc3nc21	14.5
O=C(C[N+]12CCN(CC1)CC2)NCCc1ccc(Cl)cc1Cl	8.5
CC(=NCc1ccco1)c1c(O)n(-c2ccc(Cl)cc2)c(=O)[nH]c1=O	22.4
CCCCC(=O)N/N=C/c1c(O)n(CCC2=CCCCC2)c(=O)[nH]c1=O	16.6
O=c1[nH]c2ccccc2c(=O)n1-c1ccc(Cl)cc1Cl	17.0
O=C(O)c1cccc2c1NC(C(=O)O)C1CC(Sc3ccccc3[N+](=O)[O-])C(Cl)C21 (stereo not drawn)	14.9
CCOc1ccc(N=Cc2c(O)n(-c3cc(C)cc(C)c3)c(=O)[nH]c2=O)cc1	-0.4
O=C1NC(=O)N(c2ccccc2)C(=O)/C1=C\c1ccccc1[N+](=O)[O-]	11.8
CN1CCN(c2ccc([N+](=O)[O-])cc2Cl)CC1	1.5

Of the compounds above, these contain an NH in an aromatic ring.
SMILES	Calb biofilm kill
O=C1c2cccc3cccc(c23)C(=O)N1/N=C/c1c(O)n(-c2ccccc2)c(=O)[nH]c1=O	15.4
O=c1[nH]c(=O)n(C2CCCCC2)c(O)c1/C=N/N1CCCCC1c1cccnc1 (stereo not drawn)	17.4
COc1ccc(CCn2c(O)c(C=Nc3ccccc3F)c(=O)[nH]c2=O)cc1OC	8.9
CCOc1ccc(-n2c(O)c(N=Nc3c(C)n(C)n(-c4ccccc4)c3=O)c(=O)[nH]c2=O)cc1	18.8
O=C(O)c1cccc(N=Nc2c(O)[nH]c(=O)[nH]c2=O)c1	0.4
COc1ccc(Cn2c(O)c(/C=N/NC(=O)c3ccccc3)c(=O)[nH]c2=O)cc1	1.0
O=c1[nH]c(=O)n(Cc2ccccc2)c(O)c1C=NCCN1CCOCC1	-4.1
O=c1[nH]c(=O)n(Cc2ccccc2Cl)c(O)c1/C=C1/C=CC=N1	2.0
CCCCn1c(O)c(C(CC)=NCCCn2ccnc2)c(=O)[nH]c1=O	17.2
CC(=NCc1ccco1)c1c(O)n(-c2ccc(Cl)cc2)c(=O)[nH]c1=O	22.4
CCCCC(=O)N/N=C/c1c(O)n(CCC2=CCCCC2)c(=O)[nH]c1=O	16.6
O=c1[nH]c2ccccc2c(=O)n1-c1ccc(Cl)cc1Cl	17.0
CCOc1ccc(N=Cc2c(O)n(-c3cc(C)cc(C)c3)c(=O)[nH]c2=O)cc1	-0.4

Some of the compounds tested; the hit share may differ from the screen's.
